Source: PubChem BioAssay (National Center for Advancing Translational Sciences (NCATS))
TRPML1 ag = agonists of human TRPML1 channel | Q9GZU1 | TRPML1-expressing cells, Ca2+ dye fluorescence, FDSS; host cell line not named in the record; reference of the full effect not given here | activation, % (concentration not given with the values) | actives 0.12% (n = 410,000); in the data active = activation above about 50%; inconclusive = about 30% to 50%; inactive = below about 30%; also: 0% is about no effect; the text of the record puts the active cut at 80%
Target sequence (Q9GZU1 whole entry, looked up): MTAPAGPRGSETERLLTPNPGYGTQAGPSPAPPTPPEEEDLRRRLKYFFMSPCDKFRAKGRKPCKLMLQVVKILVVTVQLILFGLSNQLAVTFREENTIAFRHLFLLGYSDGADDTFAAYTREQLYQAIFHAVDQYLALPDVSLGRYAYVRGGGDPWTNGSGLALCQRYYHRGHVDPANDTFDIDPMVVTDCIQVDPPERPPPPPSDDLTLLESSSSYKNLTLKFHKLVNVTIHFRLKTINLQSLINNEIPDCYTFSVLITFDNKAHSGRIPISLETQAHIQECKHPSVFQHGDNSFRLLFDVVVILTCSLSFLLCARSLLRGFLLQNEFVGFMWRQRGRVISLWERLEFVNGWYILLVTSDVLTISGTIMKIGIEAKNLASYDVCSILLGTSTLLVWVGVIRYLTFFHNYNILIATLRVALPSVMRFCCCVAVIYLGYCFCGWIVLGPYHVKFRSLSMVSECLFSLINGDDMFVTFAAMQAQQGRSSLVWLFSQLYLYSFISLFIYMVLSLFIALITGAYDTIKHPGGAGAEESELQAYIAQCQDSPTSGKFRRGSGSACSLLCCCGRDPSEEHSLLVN
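Kinetic FDSS Ca2+ read in Tet-induced TRPML1-DL cells (ABD Ca8 dye plus quencher, 45-90 min RT loading): baseline, then compound, then 110 s agonist window; EC80 agonist 54-4 at 4uM final added afterwards for a 110 s antagonist window.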
D2 ag = activates the human D2 dopamine receptor; activation, % (concentration not given with the values); DiscoveRx PathHunter D2 beta-arrestin, luminescence, 90 min; 100% = 57 uM dopamine signal; P14416; AID 624465; actives 0.084% (n = 360,000); in the data active = activation above about 40%; inconclusive = about 15% to 40%; inactive = below about 15%; also: compound concentration not given in the record; the text of the record calls up to 30% inactive
Target sequence (P14416 whole entry, looked up): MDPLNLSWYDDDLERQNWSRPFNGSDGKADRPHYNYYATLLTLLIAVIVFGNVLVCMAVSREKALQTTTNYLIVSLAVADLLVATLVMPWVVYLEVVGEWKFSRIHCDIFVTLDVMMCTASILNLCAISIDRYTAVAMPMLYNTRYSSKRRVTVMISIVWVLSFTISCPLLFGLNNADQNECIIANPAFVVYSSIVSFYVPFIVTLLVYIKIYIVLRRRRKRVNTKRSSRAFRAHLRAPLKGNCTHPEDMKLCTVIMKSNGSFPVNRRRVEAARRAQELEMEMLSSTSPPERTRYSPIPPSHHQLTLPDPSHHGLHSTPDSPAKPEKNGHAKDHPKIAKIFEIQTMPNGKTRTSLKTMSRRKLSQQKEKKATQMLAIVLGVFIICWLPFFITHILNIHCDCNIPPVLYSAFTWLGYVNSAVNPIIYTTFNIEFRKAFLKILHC
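Agonist mode: compounds alone added to overnight-plated D2 PathHunter cells for 90 min at 37 C, with 57 uM final dopamine (EC100) defining full response. Beta-arrestin recruitment detected by chemiluminescent reagent, read after 1 h at ambient temperature.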
PINK1 modulator = changes PINK1 expression | PINK1 immunofluorescence, high-content cytometry, 24 h | Potency, µM (highest dose often 76.6 µM), without a hit: top-dose activation (PINK1 increase), usual class: activators | actives 0.2% (n = 410,000) | AID 624263; active = well fitted activation curve with a large enough effect; inconclusive = small, poorly fitted or top-dose-only effect; inactive = flat fitted curve, though single readings scatter; cell line not stated here;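 also: potency is read from the fitted curve at half-maximal effect; % of control where 0% means no effect; nearly all actives have a fitted effect of over 65% in size; a mitochondrial uncoupler was the plate control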
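Stable cell line, 250 cells/well, 12 h attachment; compounds pinned at 5 concentrations, 24 h; CCCP control. Fixed with nuclear dye, primary antibodies 12 h at 10 degrees C, secondary plus cell stain; laser-scanning cytometer read.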
D2 potentiator = potentiates the human D2 dopamine receptor allosterically; potentiation, % (test concentration not listed); DiscoveRx D2 beta-arrestin cells, luminescence, 90 min; 100% = 57 uM dopamine signal; P14416; actives 0.23% (n = 360,000); AID 624464; active = potentiation of 50% or more; inconclusive = 30% to 50%; inactive = 30% or less;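 also: compound concentration not given in the record; tested on top of an EC20 dose of dopamine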
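PathHunter D2 cells, attached overnight at 37 deg C, received compound in DMSO plus dopamine at EC20 (50 nM final) for 90 min at 37 deg C. Beta-arrestin recruitment was read as luminescence after 1 h with detection reagent at ambient temperature.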
CtBP-E1A blk = CtBP/E1A binding inhibition; AlphaScreen GST-E1A/His-CtBP binding, 1536-well; active compounds read low; control for the full effect not named in the record; activity change, % (test concentration not listed); actives 0.49% (n = 340,000); AID 651724; in the data active means activity change below about -65%; inconclusive means about -30% to -65%; inactive means above about -30%; also: % is scaled to controls: 0 for no effect and ±100 for the full control effect
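Protein mix (5X: 125 nM each GST-E1A, His-CtBP) was incubated with pinned compound 2 h at 37 deg C in dark, in 50 mM Tris pH 8.0 buffer with 300 mM NaCl. Glutathione donor and nickel acceptor beads followed; AlphaScreen signal read after 1 h.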
Six1-Eya2 inh = blocks human Six1 binding to Eya2. actives 0.56% (n = 360,000). activity change, % (test concentration not listed). AlphaScreen GST-Six1/His-Eya2 binding, biochemical; active compounds read low; control for the full effect not named in the record. Q15475+O00167. AID 651725; in the data active = activity change below about -65%; inconclusive = about -30% to -65%; inactive = above about -30%; also: % is scaled to controls: 0 for no effect and ±100 for the full control effect
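Compounds are tested against tagged Six1 and Eya2 proteins bridged by glutathione donor and nickel acceptor beads; after a one-hour incubation at 37 °C without light, AlphaScreen emission is recorded.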
Starred values were filed as active, the others as inactive; ? = inconclusive; · = not tested or not shown; & = joins results of further samples; [ ] = dose if it differs, or a comment.

compound,TRPML1 ag,CtBP-E1A blk,Six1-Eya2 inh,D2 potentiator,PINK1 modulator,D2 ag
CCN(Cc1cccs1)C(=O)c1cccc(S(=O)(=O)N2CCN(C)CC2)c1,-0.4,9,-1,-24,-3.0%,-1.3
Cc1ccc(C)c(-n2c(=O)c(C#N)cc3c(=O)n4ccccc4nc32)c1,0.7,-6,-9,-6,5.9%,1.2
COc1ccc(S(=O)(=O)N2CCOCC2)cc1NC(=O)CO/N=C/c1ccccc1OC(F)F,1.3,-3,-6,-2,3.3%,-0.4
COc1ccc(NC(=O)CN(C)C(=O)c2ccc(=O)[nH]c2)cc1,0.2,11,2,-3,2.7%,-3.2
COc1ccc(/C=C2\SC(=O)N(CCCC(=O)Nc3ccc(C(=O)O)cc3)C2=O)cc1,-0.7,6,7,-16,1.3%,-3.9
COc1ccc2c(c1)OC13CCCCC1C2C(C(=O)c1ccccc1)C(=O)N3 (stereo not given),-0.4,5,1,-4,6.0%,-2.3
O=C(NNc1nc2ccccc2s1)Nc1ccc(F)cc1,-0.2,-10,-7,-7,1.3%,-3.3
CCOc1c(Cl)cc(CNCC(C)C)cc1Cl,-0.6,4,15,-23,7.6%,-5.9
O=[N+]([O-])c1ccccc1S(=O)(=O)Nc1ccc(S(=O)(=O)Nc2nccs2)cc1,-0.4,-6,-7,7,3.8%,0.7
CCCCOc1ccc(N(CC(=O)NCc2ccccc2)C(=O)c2csnn2)cc1,1.6,-4,9,-17,1.9%,-4.0
COc1ccccc1OCc1ccc(C(=O)N2CCOCC2)o1,-0.3,-3,-12,-12,-0.7%,-5.2
Cc1ccn(CCC(=O)NC2CCCc3c2cnn3-c2cccc(C)c2C)n1 (stereo not given),0.6,5,4,-7,3.5%,7.7
Cc1cc(C)cc(NCc2ccncc2)c1,0.4,4,2,0,-1.2%,-3.7
COc1cc(NC(=O)[C@@H](NC(=O)c2ccco2)C(C)C)c(OC)cc1NC(=O)c1ccccc1,0.5,-2,-4,9,13%,3.4
COc1ncnc2c1cnn2-c1ccccc1,0.4,8,6,-2,-0.6%,-2.9
CCOc1ccc(N=C2SC(C(=O)Nc3ccccc3C#N)C(N)=C2C(=O)Nc2ccc(Cl)cc2)cc1 (stereo not given),-0.7,3,-6,-4,4.5%,-5.9
C=CCC[C@@H](Cc1ccc(F)cc1)C(=O)OCCNC(=O)[C@H](CC=C)CC(=O)NCCO,-0.8,1,-4,·,0.9%,-0.3
O=C1OC[C@@H]2CCCN2C(=O)[C@H](CC(=O)N(CCO)Cc2ccccc2)C/C=C\CC[C@H]1Cc1ccc(F)cc1,-0.3,-1,-6,-5,0.3%,-5.1
CN(CCc1ccccc1)C(=O)c1cccc(NC(=O)Cc2cccc(NC(=O)C3CCN(C(=O)C4CCCC4)CC3)c2)c1,-1.2,-2,1,-1,4.4%,2.7
COc1ccc(C(=O)Nc2nnc(-c3ccco3)s2)cc1,0.1,11,6,-2,·,0.7
Cn1c2ccccc2c2nnc(SCC(=O)NC3CC3)nc21,-0.5,-5,-13,-2,-1.4%,5.9
Cc1ccc(C(=O)N2CCc3cc4c(cc3C2C)OCCCO4)cc1 (stereo not given),0.9,-13,-9,-11,2.8%,-0.7
CC(C)Oc1ccc(-c2nc(NCC3CCCO3)c3ccccc3n2)cc1 (stereo not given),0.0,-4,-1,-13,?,-5.4
COc1ccc(-c2nc3c(Cl)cc(C(F)(F)F)cn3c2Cc2ccc(C)cc2)cc1OC,0.2,10,0,-7,5.9%,-1.2
COc1cc(C)cc2oc(=O)c(CC(=O)N3CCN(C(=O)C4COc5ccccc5O4)CC3)c(C)c12 (stereo not given),1.4,-1,-1,12,0.0%,5.0
Cc1cc(C)c(NC(=O)COC(=O)C2=COCCO2)c(C)c1,-0.8,5,0,-5,-0.1%,-0.7
Cc1cc(=O)n2nc(N3CCC(C(=O)NCCc4ccccc4)CC3)sc2n1,-0.5,0,-13,0,-0.8%,-2.4
CCOc1ccc(-n2nc3ccc(N)cc3n2)cc1,·,·,3,4,1.0%,5.1
COc1ccc(C(=O)NCCSCc2ccc(Cl)cc2)cc1OC,1.4,-15,-1,-3,3.5%,-5.3
Cc1ccc(CNC(=O)c2nn(C)c3c2CS(=O)(=O)c2ccccc2-3)cc1,1.3&0.3,-2,2,-14,1.3%&-1.0%,-4.9

Record cards, from the list above:
CCOc1c(Cl)cc(CNCC(C)C)cc1Cl as listed: TRPML1 ag: -0.6; CtBP-E1A blk: 4; Six1-Eya2 inh: 15; D2 potentiator: -23; PINK1 modulator: 7.6%; D2 ag: -5.9
Cc1ccc(C)c(-n2c(=O)c(C#N)cc3c(=O)n4ccccc4nc32)c1 as listed: TRPML1 ag: 0.7; CtBP-E1A blk: -6; Six1-Eya2 inh: -9; D2 potentiator: -6; PINK1 modulator: 5.9%; D2 ag: 1.2

(listing goes on)
compound,TRPML1 ag,CtBP-E1A blk,Six1-Eya2 inh,D2 potentiator,PINK1 modulator,D2 ag
CCS(=O)(=O)N1CCCC(C(=O)NCc2ccc3c(c2)OCO3)C1 (stereo not given),0.1,2,1,-3,-2.0%,0.5
COc1ccc(OC(F)(F)F)cc1CC1(C)C(=O)Nc2c(Cl)ccc(Cl)c21 (stereo not given),5.6,1,18,8,4.4%,-2.9
CCN(CC)CCCN(Cc1cc2cc3c(cc2[nH]c1=O)OCO3)C(=S)NCCOC,-0.8,·,-5,-4,-0.6%,-0.9
NNc1nc2cc3c(cc2s1)OCCO3,-1.2,·,2,-5,-1.4%,4.8
Cn1nc(C(=O)NNC(=O)CCc2ccccc2Cl)c2ccccc2c1=O,0.0,1,2,-3,-0.1%,-1.8
CCOC(=O)c1oc2c(CN3CCN(C)CC3)c(O)ccc2c(=O)c1-c1ccccc1OC,-0.6,4,-6,-6,1.1%,-0.7
Cc1nnc2c3ccccc3c(-c3cccs3)nn12,0.6,0,-14,-7,-0.5%,-3.3
CC(C)C1CC(CCN)(c2ccccc2)CCO1 (stereo not given),·,-1,7,-11,-0.9%,-4.8
OC12CCCCC1C(c1ccc3c(c1)OCO3)N(Cc1cccc(F)c1)CC2 (stereo not given),-1.2,-8,-3,1,-2.0%,-3.1
O=C1CCCCCN1C(=O)c1cccc(C(=O)N2CCCCCC2=O)c1,-0.4,15,0,-5,1.9%,-1.5
CCOC(=O)c1sc(C)c2c1NC(C)(c1ccccc1)NC2=O (stereo not given),2.2,0,-2,0,4.3%,-0.6
O=C(NCc1ccccc1)c1cc(C2CCCCN2C(=O)c2ccc(Cl)cc2)on1 (stereo not given),-0.4,-3,-5,-2,1.7%,-4.6
O=C(OCn1nnc2ccccc2c1=O)c1cccnc1,3.3,1,1,6,-0.5%,-2.4
CCCCCCN1CCN(C2CN(Cc3cn(Cc4ccccc4)nn3)S(=O)(=O)C2)CC1 (stereo not given),-1.1,-8,9,·,-0.1%,·
O=C(CSc1ncnc2[nH]ncc12)Nc1nc(-c2ccc(F)c(F)c2)cs1,0.7,·,154,-8,-0.2%,7.4
CNC(=O)c1ccsc1NC(=O)CN1C(=O)CCC1=O,-0.4,-2,5,-7,0.2%,-6.6
Cc1ccc(-n2c(C)cc(C(=O)CSc3n[nH]c(N)n3)c2C)cc1,1.2,-12,-15,-7,3.8%[38.3 µM],-3.3
CC1CCN(S(=O)(=O)c2cccc(C(=O)Oc3ccc([N+](=O)[O-])cc3)c2)CC1,0.1,-5,-1,-14,1.8%,-0.9
O=C(NC1CCCCC1)c1noc2c1CCCCC2,2.1,8,4,-14,-0.1%[38.3 µM],-2.4
Cc1cc(C)c(S(=O)(=O)NCC2CCC(C(=O)NCc3ccccn3)CC2)c(C)c1 (stereo not given),-0.4,4,-2,2,0.8%,1.4
O=C(COc1cccc(C(F)(F)F)c1)NNC(=O)c1ccc(=O)[nH]c1,-0.4,6,3,-4,0.3%,-2.6
c1ccc(-c2sc3ccccc3c2-c2ccc(OCCN3CCCCC3)cc2)cc1,-0.7,-12,-16,-23,9.5%,2.2
Cc1ccc(-c2c(=O)n(O)c3ccccc3[n+]2[O-])cc1,2.4,-2,2,-2,3.2%,0.5
Cc1cc(/C=N/NC(=O)c2cc3ccccc3o2)c(C)n1C,-0.3,-23,-14,-4,12%,4.6
Cn1cnnc1SCC(=O)c1ccco1,0.7,0,19,4,2.3%[38.3 µM],0.6
CC(=O)Nc1ccc(S(=O)(=O)N2CCC(C(=O)c3ccc(Cl)cc3)CC2)cc1,-0.3,-24,-12,3,-1.3%,4.6
COc1ccc(NS(=O)(=O)c2cccc(C(=O)NCc3ccccn3)c2)cc1,0.8,-3,?,7,-3.3%,2.1
CCOC(=O)C1(Cc2cccc(Cl)c2)CCCN(C(=O)c2ccnn2C)C1 (stereo not given),-0.3,4,0,2,0.4%,-0.6
COc1cc(/C=N/N(C)S(=O)(=O)c2ccc(C)cc2)cc([N+](=O)[O-])c1O,-0.6,·,-2,-18,0.5%,-7.7
CSc1ccc(C2C(C#N)=C(N)N(c3ccccc3)C3=C2C(=O)CCC3)cc1 (stereo not given),-0.7,-3,-6,7,2.7%,-2.5
O=[N+]([O-])c1cccc(-c2ccc(C(=S)N3CCN(c4ccccc4)CC3)o2)c1,3.2,?,?,-5,0.3%,-3.8
CN(C(=O)CN1CCCCCC1)c1c(N)n(Cc2ccccc2)c(=O)[nH]c1=O,-0.4,3,7,-9,1.1%,-9.7
CCN(C(=O)CN1CCC(C)CC1)c1c(N)n(Cc2ccccc2)c(=O)[nH]c1=O,0.3,-7,3,10,1.7%,1.1
C/C(=N\NC(=O)c1cccc(Br)c1)c1cccc(NC(=O)c2ccc(C)o2)c1,2.2,-1,-10,-18,-0.2%,-4.4
CC1CCC/C(=N\NC(=S)NCc2ccccc2)C1 (stereo not given),0.2,-2,2,-13,1.2%,-1.2
Cc1cc(C)cc(N2CC(C)Cn3c2nc2c3c(=O)[nH]c(=O)n2C)c1 (stereo not given),1.3,·,4,-3,0.1%,-4.0
CN(C)Cc1ccc(CNC(=O)COc2ccc3ccccc3c2)cc1,-0.2,2,4,-8,1.7%,-2.2
COc1cccc(C(O)c2nc(-c3ccc4ccccc4c3)cs2)c1 (stereo not given),0.7,-7,5,-2,4.7%,-3.4
COc1ccc(CCNC(=O)C2CCC(CNc3c(N4CCCC4)c(=O)c3=O)CC2)cc1OC (stereo not given),1.3,-6,12,-3&-4,-0.4%,-0.4
CC(C)CC(=O)Nc1ccnn1C1CCN(C(=O)c2ccc(F)cc2Cl)CC1,1.2,5,10,-11,0.1%,-2.0
Cc1cc(OCC(=O)OCC(=O)NC2CCCCC2C)ccc1Cl (stereo not given),0.4,2,3,-2,-0.9%,0.9
